# Lassa entry inh – qHTS for Inhibitors of binding or entry into cells for Lassa Virus; Lassa virus pseudotype entry inhibition, cell reporter; control for the full effect not named in the record; Potency, µM (doses to about 37.9 µM), without a hit: top-dose activity change, negative = inhibition, actives largely listed as inhibitors; 300,000 tested, 1.2% active; AID 540256, 2011; active means well fitted inhibition curve with a large enough effect; inconclusive means small, poorly fitted or top-dose-only effect, or effect the other way; inactive means flat fitted curve, though single readings scatter; tested in HEK293 cells; note: % is set by controls: 0 for no effect and ±100 for the full control effect; nearly all actives have a fitted effect of over 50% in size; luciferase read-out
# Marburg entry inh – qHTS for inhibitors of binding or entry into cells for Marburg Virus; AID 540276, 2011; Marburg virus pseudotyped entry inhibition, cell reporter; control for the full effect not named in the record; about a third of the inactives were read at about 46 µM; Potency, µM (titrated, usually from 37.8 µM), for inactives: at the highest dose activity change, negative = inhibition, usual class: inhibitors; 300,000 tested, 1.8% active; active = well fitted inhibition curve with a large enough effect; inconclusive = small, poorly fitted or top-dose-only effect, or effect the other way; inactive = flat fitted curve, though single readings scatter; tested in HEK293 cells; about a fifth of its hits are not listed in these tables; note: % is set by controls: 0 for no effect and ±100 for the full control effect; luciferase read-out
# 2A StopGo – High Throughput Screening for Foot and Mouth Disease Virus Antivirals; human cells with a luciferase reporter of 2A StopGo recoding; control for the full effect not named in the record; Potency, µM (top dose mostly 57.9 µM), inactives show top-dose signal change, negative = less light; 410,000 tested, 1.2% active; AID 1159524, 2015; active = well fitted falling curve with a large enough effect; inconclusive = small, poorly fitted or top-dose-only effect; inactive = no such curve, though single readings can be large or run the other way; tested in HEK293T cells; note: % is set by controls: 0 for no effect and ±100 for the full control effect; nearly all actives have a fitted effect of over 45% in size; luciferase light after 4 h
# SARS PLpro yeast – qHTS of Yeast-based Assay for SARS-CoV PLP; S. cerevisiae expressing SARS-CoV PLpro, growth rescue; control for the full effect not named in the record; Potency, µM (series often up to 32.9 µM), for the others: at the highest dose activity, positive = growth rescue; 330,000 tested, 0.19% active; AID 485353, 2010; active means well fitted rising curve with a large enough effect; inconclusive means small, poorly fitted or top-dose-only effect; inactive means no such curve, though single readings can be large or run the other way; note: 0% is about no effect; nearly all actives have a fitted effect of over 55% in size; growth read by luminescence after 48 h
# RE007 growth inh – qHTS Assay for Inhibitors of the HIV-1 protein Vpr; S. pombe RE007 Vpr strain, BacTiter-Glo ATP luminescence, 24 h; control for the full effect not named in the record; Potency, µM (titrated, usually from 92.2 µM), for the others: top-dose activity change, negative = less growth; 360,000 tested, 0.21% active; AID 651644, 2012; active = well fitted falling curve with a large enough effect; inconclusive = small, poorly fitted or top-dose-only effect; inactive = no such curve, though single readings can be large or run the other way;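 note: % is set by controls: 0 for no effect and ±100 for the full control effect; nearly all actives have a fitted effect of over 50% in size; the assay follows cell death caused by Vpr and the record does not say whether a fall means rescue or toxicity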
#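 Fission yeast RE007 carrying one integrated HIV-1 vpr copy, seeded at OD 0.01 in PMG+AL medium with 23 nL pinned compound. Grown 24 h at 30 degrees; viability read by BacTiter-Glo luminescence after 5 min.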
# NS1 function inh – qHTS Assay for Inhibitors of Influenza NS1 Protein Function; Potency, µM (doses to about 46.1 µM), inactives show top-dose activity, positive = more growth; S. cerevisiae slowed by influenza A NS1, growth recovery by OD600; 270,000 tested, 0.4% active; active means well fitted rising curve with a large enough effect; inconclusive means small, poorly fitted or top-dose-only effect; inactive means no such curve, though single readings can be large or run the other way; note: nearly all actives have a fitted effect of over 50% in size
#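 Compounds were scored for reversing the slow growth caused by influenza A NS1 in S. cerevisiae, measured by optical density at 600 nm. Assay medium contained 2% galactose at pH 6.0; NS1-free yeast of the same strain were the positive control.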
# Cruzain noTriton – qHTS Assay for Promiscuous and Specific Inhibitors of Cruzain (without detergent) | Potency, µM, for inactives: max response, negative = inhibition, usual class: inhibitors | purified cruzain, Z-FR-AMC fluorescence, no detergent | Cruzipain (Trypanosoma cruzi), P25779 | 200,000 tested, 2.3% active;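 note: plate controls were enzyme without inhibitor for no effect and buffer without enzyme for full effect; nearly all actives have a fitted effect of over 40% in size; top concentration of the series not given in the record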
# Target sequence (P25779 123-467 limits assumed): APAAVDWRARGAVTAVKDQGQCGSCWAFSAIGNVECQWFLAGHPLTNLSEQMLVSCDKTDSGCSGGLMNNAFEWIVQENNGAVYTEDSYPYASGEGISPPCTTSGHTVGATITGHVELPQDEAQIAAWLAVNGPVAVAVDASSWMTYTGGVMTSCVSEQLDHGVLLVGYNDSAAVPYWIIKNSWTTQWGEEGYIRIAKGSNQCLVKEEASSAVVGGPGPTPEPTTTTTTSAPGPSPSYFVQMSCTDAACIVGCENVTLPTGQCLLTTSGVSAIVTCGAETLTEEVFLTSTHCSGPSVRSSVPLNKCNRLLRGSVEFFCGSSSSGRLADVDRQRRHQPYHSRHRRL
#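 Detergent-free condition (0.00005% Triton X-100) in acetate buffer pH 5.5 with DTT. 1.5 nM enzyme and compound were pre-mixed 15 min, then 2 uM Z-FR-AMC substrate added; reaction progress from fluorescence change between first and third reads (60 s).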
# Cruzain Triton – qHTS Assay for Promiscuous and Specific Inhibitors of Cruzain (with detergent) | purified cruzain, Z-FR-AMC fluorescence, 0.01% Triton | Potency, µM, without a hit: max response, negative = inhibition, hits mostly inhibitors | Cruzipain (Trypanosoma cruzi), P25779 | 200,000 tested, 0.43% active;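 note: plate controls were neutral wells for no effect and buffer without enzyme for full effect; nearly all actives have a fitted effect of over 40% in size; top concentration of the series not given in the record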
#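 Purified cruzain (1.5 nM final) was preincubated with compounds for 15 min at room temperature in 100 mM sodium acetate pH 5.5, 5 mM DTT, 0.01% Triton X-100. Reaction started with 2 uM Z-FR-AMC; AMC fluorescence change over 60 s gave activity.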
# * hit, by the source's call; ? = inconclusive; / = no result given; & = joins results of further samples; [ ] = another dose, or the depositor's remark. Unless noted, calls come from the whole dose curve; as a rule, active = well fitted curve in the direction sought with a large enough effect; inconclusive = small, poorly fitted or top-dose-only effect, or another doubt; inactive = no such curve, though single readings can be large; an effect the other way counts as inactive or inconclusive. Potency is the fitted concentration of half-maximal effect.
# Value order: Lassa entry inh	Marburg entry inh	2A StopGo	SARS PLpro yeast	RE007 growth inh	NS1 function inh	Cruzain noTriton	Cruzain Triton
COc1ccc2[nH]c(C)c(CCN(Cc3cccs3)C(=S)Nc3ccccc3OC)c2c1
→ /	-6%	-2%	3%	-6%	?	16µM*	-0.6%
O=C(NC1CCCC1)c1nc2c(nnn2Cc2cccc(Cl)c2)c(=O)[nH]1
→ 11%	8%	-12%	-1%	-13%	-12%	-16%	-3.3%
COc1cc(NC(=O)c2oc3c(c2C)-c2nn(Cc4cccc(Cl)c4)cc2CC3)cc(OC)c1
→ 9%[46.1 µM]	/	2%	/	/	/	6%	-1.4%
O=c1c2cc(NC(=S)NCc3ccccn3)ccc2nc2n1CCCCC2
→ 15%[46.1 µM]	?	-2%	2%	1%	-4%	/	/
COc1ccc2[nH]c3c(c2c1)CCN1C(=O)N([C@@H](C)C(=O)NC2CCCC2)C(=O)[C@]31C
→ /	/	0%	-18%	1%	5%	/	/
O=C(CCC1CCCCC1)Nc1ccccc1O
→ ?	6%	47%[activator]	-11%	?	-62%	0%	4.6%
O=C(COC(=O)c1ccc2ccccc2n1)Nc1ccccc1Br
→ 20%[46.1 µM]	?	-1%	-17%	-11%	/	/	/
COc1ccc(CCc2ccc3ccccc3n2)cc1
→ -10%[46.1 µM]	?	11%	/	-16%	/	/	/
CC1=NN(C(C#N)c2ccc(F)cc2)C(c2ccccc2)C1 (configuration not stated)
→ 10%	-10%	-8%	-1%	4%	?	/	/
COc1ccc(NS(=O)(=O)c2cccc(C(=O)N/N=C(\C)c3ccc(-n4ccnc4)cc3)c2)cc1
→ -2%	-11%	-16%	4%	7%	7%	-12%	1.5%
O=C(Nc1ccc(Br)cc1)NC1CCCCCCC1
→ ?	-20%[46.1 µM]	14%	-4%	6%	-7%	/	/
CC(=O)Nc1ccc(NC(=O)COC(=O)COc2ccc3ccccc3c2)cc1
→ 7%	2%	-16%	-2%	63%	/	/	/
Cc1cc(=O)[nH]c2nnc(SCc3ccc(Cl)cc3Cl)n12
→ 11%[46.1 µM]	/	5%	/	/	/	-5%	-0.6%
Cc1ccc2[nH]c3c(c2c1)CC/C(=C/c1ccccc1)C3=O
→ 11%	-15%	41%[activator]	1%	6%	0%	13µM*	3.8%
CN(Cc1ccccc1)C(=O)COC(=O)c1cc(-c2ccc(Cl)s2)nc2ccccc12
→ -5%	-23%	-11%	1%	15%	8%	?	-2.1%
CCN(CC)c1ccc(NC(=O)CCS(=O)(=O)c2ccc3c(c2)oc(=O)n3C)c(C)c1
→ 15%[46.1 µM]	/	-5%	/	/	/	0%	0.4%
COC(=O)CC1C(=O)NCCN1C(=O)c1cc([N+](=O)[O-])ccc1Cl (configuration not stated)
→ -2%	12%	-10%	0%	0%	-1%	/	/
O=C(NCCc1ccccc1)/C(=C\c1ccc([N+](=O)[O-])cc1)NC(=O)c1ccco1
→ 1%	-6%	8%	8%	-19%	20%	/	/
O=C(CSc1nnc(-c2ccccn2)o1)Nc1cccc(Cl)c1
→ ?	15%[46.1 µM]	42%[activator]	0%	-11%	9%	/	/
O=C1OCCN/C1=C\C(=O)c1ccc(Cl)cc1
→ -4%	10%[46.1 µM]	-1%	1%	2%	7%	/	/
Cc1cc(C)c(NC(=S)NCC2CCN(C(C)c3ccccc3)C2)c(C)c1 (configuration not stated)
→ -2%[46.1 µM]	?	-14%	7%	-5%	/	/	/
CC(=O)N1CCc2c(sc(NC(=O)CCS(=O)(=O)c3ccc(C)cc3)c2C(N)=O)C1
→ -8%	-8%[46.1 µM]	7%	2%	-1%	/	/	/
COc1ccccc1N1CCN(C(=O)CCC(=O)N2CCN(c3ccc(F)cc3)CC2)CC1
→ /	/	?	4%	11%	1%	/	/
COc1cc(C)ccc1OCc1cc(C(=O)N2C[C@H]3CC[C@H]2C3)no1
→ /	/	-1%	?	-3%	-23%	/	/
Cn1cc(CN2CCN(Cc3ccc4c(c3)OCO4)CC2)c(-c2ccccc2F)n1
→ /	/	-10%	0%	-13%	-3%	/	/
CCOc1c(O)ccc(C2NC(=O)NC(C)=C2C(=O)OC)c1[N+](=O)[O-] (configuration not stated)
→ 4%[46.1 µM]	0%[46.1 µM]	21%	2%	-5%	/	/	/
CCn1ccnc1CNC(=O)c1cc(COc2ccc(F)cc2F)on1
→ 2%	4%[46.1 µM]	-12%	0%	-18%	2%	/	/
COC(=O)c1sc(NC(=S)NC(=O)c2cccc(C)c2)nc1C
→ 15%	4%	40%[activator]	2%	5%	18%	3%	1.7%
Cc1ccc(C(=O)COC(=O)CNC(=O)c2cccs2)cc1C
→ /	/	15%	1%	-3%	-4%	/	/
Cc1ccc(Cl)cc1NC(=O)Cn1c(=O)n(Cc2ccccc2)c(=O)c2oc3ccccc3c21
→ 22%[46.1 µM]	/	-5%	/	/	/	-15%	-0.8%
CCn1c(SCC(=O)NNC(=O)c2ccc(OC)cc2)nnc1C1CC1
→ 0%	3%	32%[activator]	-5%	1%	-1%	/	/
COc1ccc(Cl)cc1NC(=O)CN(C)C(C)C(=O)NCC1CCCCC1 (configuration not stated)
→ -1%	?	-22%	1%	11%	5%	?	-3.5%
Cc1ccc(-n2c(SCC(=O)NNC(=S)Nc3ccccc3)nc3ccccc3c2=O)cc1
→ 1%	8.9µM*	-15%	1%	/	4.5µM*	2%	-1.0%
CCOc1ccccc1NC(=O)CN1CCN(C(=O)C2CCCO2)CC1 (configuration not stated)
→ 2%	3%[46.1 µM]	-4%	-9%	6%	19%	/	/
Cn1nnnc1SCCCNCc1ccc(-c2ccc(Br)cc2)o1
→ 2%[46.1 µM]	4%[46.1 µM]	44%[activator]	/	/	/	0%	-4.9%
Cc1ccc(Cl)cc1N1CCN(C(=O)CSc2ccsc2[N+](=O)[O-])CC1
→ -22%	23%	?	14%	-9%	3%	?	-12%
C/C(=N\NC(=O)C(N)=O)c1ccc(O)cc1O
→ 25%[46.1 µM]	0%[46.1 µM]	-12%	11%	6%	/	/	/
CN(C)CCN1C(=O)c2oc3ccc(Cl)cc3c(=O)c2C1c1cccc(Br)c1 (configuration not stated)
→ -4%	14%&14%	2%	-5%	10%	-8%	-14%	-2.5%
Cc1nc(CN2CCCCC2)cc(=O)[nH]1
→ 2%[46.1 µM]	3%[46.1 µM]	-4%	7%	44%	/	/	/
COc1cc(C)ccc1OCCOc1c(C)cccc1Cl
→ -1%	10%	39%[activator]	-25%	-5%	-47%	0%	-1.0%
CC(C)(C)NS(=O)(=O)c1ccc(OCC(=O)N2CCN(Cc3ccccc3)CC2)cc1
→ ?	?	-5%	0%	0%	1%	/	/
COc1ccc(S(=O)(=O)N2CCCCC2)cc1NC(=O)C1COc2ccccc2O1 (configuration not stated)
→ ?	11µM*	?	-3%	-7%	/	/	/
COc1ccccc1CNC(=O)C(=O)NCC1OCCN1C(=O)c1cccs1 (configuration not stated)
→ 1%	3%	-22%	6%	2%	-1%	0%	5.4%
CC(=O)NCC(=O)OCC(=O)Nc1ccc(C(C)=O)cc1
→ -7%	21%[46.1 µM]	-6%	6%	4%	12%	3%	7.5%
Cc1cc(C(=O)OCC(=O)c2cccc([N+](=O)[O-])c2)c2cccc(C)c2n1
→ -11%	-1%[46.1 µM]	-9%	17%	33%	-4%	-2%	-6.1%
CC12CC3(C)CC(C)(C1)CC(C(=O)NC(=S)NC(C)(C)C)(C2)C3
→ 15%	9%&9%	0%	2%	-9%	9%	-5%	2.9%
O=C(Nc1ccc(N2CCOCC2)c(Cl)c1)c1ccc([N+](=O)[O-])o1
→ /	/	0%	-5%	-7%	-39%	/	/
O=C(O)CCCn1nc(-c2ccccc2)c2ccccc21
→ /	/	-20%	-11%	-6%	-185%	2%	-0.4%
Cc1sc2cc3c(c(C(=O)c4ccccc4)[n+]2c1C)-c1cccc2cccc-3c12
→ ?	4.5µM*	14µM*	-77%	6%	-60%	-29%	-16%
COC(=O)c1ccccc1NC(=O)CSc1nc(O)c(-c2ccccc2)c(=O)[nH]1
→ ?	16%[46.1 µM]	7%	1%	-6%	9%	/	/

# Profiles, looked up by structure. Order of screens: Lassa entry inh, Marburg entry inh, 2A StopGo, SARS PLpro yeast, RE007 growth inh, NS1 function inh, Cruzain noTriton, Cruzain Triton
# Cc1ccc(Cl)cc1NC(=O)Cn1c(=O)n(Cc2ccccc2)c(=O)c2oc3ccccc3c21 is listed as 22%[46.1 µM], /, -5%, /, /, /, -15%, -0.8%
# C/C(=N\NC(=O)C(N)=O)c1ccc(O)cc1O is listed as 25%[46.1 µM], 0%[46.1 µM], -12%, 11%, 6%, /, /, /

# (more compounds)
# Value order: Lassa entry inh	Marburg entry inh	2A StopGo	SARS PLpro yeast	RE007 growth inh	NS1 function inh	Cruzain noTriton	Cruzain Triton
O=C(Nc1ccc2[nH]c(=O)[nH]c2c1)c1ccc(Cl)c(Cl)c1
→ -5%	0%[46.1 µM]	77%[activator]	1%	-4%	/	/	/
N#C/C(=C(/O)c1ccc(S(=O)(=O)N(CCCl)CCCl)cc1)c1nc2ccccc2[nH]1
→ /	/	25%	-1%	17%	-46%	/	/
CS(=O)(=O)C1=NSC2=NC(=O)/C(=C\c3ccc(OC(=O)c4ccco4)c(Br)c3)C(=N)N21
→ /	/	2%	-8%	-26%	5%	/	/
Cc1ccc(C(=O)N/N=C\c2sccc2C)cn1
→ /	/	59%[activator]	-9%	1%	-3%	/	/
Fc1ccc2[nH]c3c(c2c1)CN(C(=S)NCc1ccccc1)CC3
→ ?	3%	20%	-5%	7%	-6%	/	/

# Screening results (PubChem BioAssay)
